# LANA-nucl inh = LANA-nucleosome interaction inhibition. FITC-LANA1-23 / chicken nucleosome fluorescence polarization; active compounds read low. z-score (no concentration beside the values). AID 720717. 0.3% of 51,000 active;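 active = both repeat wells score below -2 in polarization z-score versus plate sample wells, excluding overly bright wells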;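 note: 100 nL library stock added to about 30 µL; numbers are from one replicate; some results filed as inactive read as strong as hits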
#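 test system = FITC-LANA peptide and chicken nucleosomes | amount = 240 nM purified chicken nucleosomes (480 nM peptide binding sites), final | reagent = 50 nM FITC-LANA1-23 probe | medium = TEN-BT buffer, pH 7.5 | doses = single compound addition by pin transfer, 100 nL per well | timing = 10–45 min, room temperature | detection = fluorescence polarization | repeats = duplicate plates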
# BasE inh = inhibitors of Acinetobacter baumannii siderophore enzyme BasE. purified BasE, fluorescence polarization binding displacement. inhibition, % (no concentration beside the values). 0.1% of 84,000 active;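 active = both replicates above 25% with normal brightness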;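 note: 0% = negative plate control signal and 100% = positive plate control signal; stock transfer was 100 nL into about 30 µL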
# The depositor's hits bear a star; nt = no result given. The list is partial, so the mix of outcomes need not match the whole.
# Start of the listing, in advance:
Molecule,LANA-nucl inh,BasE inh
CN(Cc1ccccc1)C(=O)CCS(=O)(=O)c1cc2c(cc1Cl)NC(=O)CO2,-0.54,0.6
CC(=O)Nc1ccc(SC(F)(F)C(F)(F)C(F)(F)F)cc1,0.16,2.0
CCN1C(=O)/C(=C/c2c[nH]c3ccccc23)c2ccccc21,nt,0.4
CCc1sc(C(=O)Nc2cccc(Cn3cccn3)c2)cc1Br,-0.034,-1.3
Cc1cc(-c2cccs2)c2c(N)c(C(=O)c3ccccc3)sc2n1,nt,0.0

# Results, from the start:
Molecule,LANA-nucl inh,BasE inh
CN(Cc1ccccc1)C(=O)CCS(=O)(=O)c1cc2c(cc1Cl)NC(=O)CO2,-0.54,0.6
CC(=O)Nc1ccc(SC(F)(F)C(F)(F)C(F)(F)F)cc1,0.16,2.0
CCN1C(=O)/C(=C/c2c[nH]c3ccccc23)c2ccccc21,nt,0.4
CCc1sc(C(=O)Nc2cccc(Cn3cccn3)c2)cc1Br,-0.034,-1.3
Cc1cc(-c2cccs2)c2c(N)c(C(=O)c3ccccc3)sc2n1,nt,0.0
O=C(c1ccc(S(=O)(=O)NCc2ccco2)cc1)N1CCC(n2c(=O)[nH]c3ccccc32)CC1,nt,-0.3
CCC(c1c(N)[nH]c(=S)[nH]c1=O)c1c(N)[nH]c(=S)[nH]c1=O,-0.19,-1.7
CNC(=O)CN(Cc1ccccc1)S(=O)(=O)c1ccc(Cl)cc1,nt,1.6
CCOc1ccc(N=C2SCC(=O)N2CC)cc1,-0.14,0.3
Cc1ccc(CN(C(=O)C(C)Oc2ccc(Cl)c(C)c2)C2CCS(=O)(=O)C2)o1 (stereo unspecified),0.73,-1.2
COc1cc(NC(=O)CCNS(=O)(=O)c2ccc3c(c2)CCCC(=O)N3)cc(OC)c1OC,nt,0.6
Cc1cccc(C(=O)NCCc2ccc(S(N)(=O)=O)cc2)c1,nt,0.5
CS(=O)(=NS(=O)(=O)c1ccccc1C(F)(F)F)c1ccc(Cl)cc1 (stereo unspecified),nt,-0.5
COc1cccc(NC(=O)/C=N/O)c1,nt,1.6
C/C(=N/Nc1nc2ccccc2s1)C1=C(O)c2ccccc2C1=O,-0.52,0.6
CC(C)(C)c1cc(C(=O)NN)no1,nt,2.4
NC1=NC2(CCCC2)N=C(Nc2ccccc2)N1,nt,0.7
CCS(=O)(=O)c1ccc2nc(SCC(=O)n3c4c(c5ccccc53)CCCC4)oc2c1,-0.89,-0.4
O=C(NC(Cc1ccccc1)C(=O)O)c1ccc(Cl)c(Cl)c1 (stereo unspecified),0.039,nt
O=c1cnn([C@@H]2O[C@H](CO)[C@@H](O)[C@H]2O)c(=O)[nH]1,-0.078,nt
Cn1ncc2c(Nc3cccc(C(F)(F)F)c3)ncnc21,0.19,3.0
O=C(c1cccnc1)N1CCC(Cc2ccccc2)CC1,0.26,3.3
CCSc1ccccc1C(=O)N=C1NC(=O)CC2C(=O)NCCN12 (stereo unspecified),-0.43,0.2
COc1cc(C2SCCS2)cc(Br)c1OC(=O)NC(=O)c1c(F)cccc1F,nt,5.8
CS(=O)(=O)NCCc1ccccc1,nt,1.1

# Next section:
Molecule,LANA-nucl inh,BasE inh
CNC(=O)c1oc2c(c1C)C(=O)CC(C)(C)C2,0.13,1.2
CC1(C)CN=C(NC2CCCCC2)S1,nt,-1.7
COC(=O)c1cccc(C(=O)Nc2cnc3ccccc3c2)n1,nt,0.5
O=C(OCC(=O)N1CCN(Cc2ccccc2)CC1)c1ccc(Cl)cc1,nt,1.6
CCN(C(=O)COc1ccc(-c2nnco2)cc1)c1cccc2ccccc12,nt,0.6
COc1ccc(/C=N/NC(=O)c2ccc3c(c2)NC(=O)C(C)(C)O3)cc1OC,-0.56,2.4
COc1ccc(C2(CC(=O)O)CCOC(C)(C)C2)cc1 (stereo unspecified),-0.97,-0.4
Cn1cc(C(=O)NC2CCCC2)c(=O)c2cc(S(=O)(=O)N3CCCCC3)ccc21,0.56,0.9
CC(NC(=O)Cn1[nH]c(=O)c2ccccc2c1=O)c1ccc(-n2ccnc2)cc1 (stereo unspecified),nt,0.9
O=C(Cc1cn2ccsc2n1)NCc1ccccc1,nt,0.3
Cc1nc2sccn2c(=O)c1CCC(=O)O,0.093,0.1
Clc1ccccc1CNCc1ccc2c(c1)OCO2,-0.56,-2.3
Cc1ccc(OCc2nnc(NC(=O)c3ncoc3-c3cccc(Cl)c3)s2)cc1,-1.1,-16
CC1NCCc2sccc21 (stereo unspecified),-0.95,-0.1
O=C(C=C1NCCN1)c1ccccc1,nt,0.9
COc1ccc(/C=N/n2cn[nH]c2=S)cc1OC,nt,1.0
CC(C)C(=O)NC(=S)Nc1ccc(N2CCCCC2)cc1,-1.1,-0.9
O=C(Nc1ccccc1)NC1CCCCC1,nt,2.1
CC(C)NC(=O)c1ccc(-c2ccc(F)cc2)o1,1.8,-6.2
N#CC1=C(N)N2C(=C(C#N)C1c1cccnc1)Sc1ccccc12 (stereo unspecified),-0.23,4.5
Cc1noc(C)c1CSc1ccccc1C(=O)Nc1nccs1,nt,-2.7
CNc1ccccc1-c1nc2ccccc2o1,0.34,nt
CC(=O)N1CC(C)Oc2ccc(S(=O)(=O)N(CC(C)C)CC(C)C)cc21 (stereo unspecified),-1.1,0.6
Cc1ccc2nsnc2c1NC(=O)C(C)(C)C,-2.1,0.6
Cc1ccc(-n2c(C)cc(C(=O)CSc3nc(N)cc(N)n3)c2C)cc1C,nt,-5.3

# Additional results follow.
Molecule,LANA-nucl inh,BasE inh
c1ccc2c(c1)OCCCO2,nt,1.2
Cc1cc2nc(NCc3ccccn3)c3ccccc3n2n1,nt,-2.6
NC(=O)c1nc(Cl)c(Cl)c(Cl)c1Cl,nt,2.2
CCOC(=O)c1ccc(NC(=O)c2ccc(S(=O)(=O)N3CCOCC3)cc2)s1,nt,0.1
CCCCc1nc2n[nH]c(N)c2c2c1CCC2,0.45,-0.9
OCCNCC1CC2C=CC1C2 (stereo unspecified),2.6,0.3
CCOC(=O)C1=C(CC)Nc2ccccc2N=C1NC(=O)C1CC(=O)N(CCc2ccccc2)C1 (stereo unspecified),nt,-3.1
CC(C)CC(=O)N[C@H](C(=O)N[C@H](C(=O)N[C@@H](CC(C)C)[C@@H](O)CC(=O)N[C@@H](C)C(=O)N[C@@H](CC(C)C)[C@@H](O)CC(=O)O)C(C)C)C(C)C,0.55,0.8
O=C(COc1ccccc1Cl)c1ccc[nH]1,nt,4.5
Cc1c2c(=O)[nH]ncc2c(-c2ccccc2)n1CCSCc1c(F)cccc1Cl,nt,-4.5
CN(C)c1ccc(N)cc1C(=O)O,0.21,0.7
N=C1C(c2ccccc2)=C(O)CN1NC(=O)c1ccccc1,-1.1,1.9
Cn1c(=S)[nH]c2ccc(Br)cc2c1=O,-0.95,-0.7
Cc1c(NC(=O)C2Cc3ccccc3CN2S(=O)(=O)c2ccccc2F)c(=O)n(-c2ccccc2)n1C (stereo unspecified),nt,-0.7
Cc1nnc(NC(=O)CSc2nnc(CNC(=O)COc3ccc(Cl)cc3)n2-c2ccccc2)s1,-0.38,1.6
C#CCNC(C)c1ccccc1 (stereo unspecified),0.69,-2.2
CCSc1ccc(-c2ccccc2)nn1,0.2,-1.9
O=C(O[C@@H]1Cc2c(O)cc(O)cc2O[C@@H]1c1cc(O)c(O)c(O)c1)c1cc(O)c(O)c(O)c1,0.22,nt
C(=N\c1nc2ccccc2s1)/Nc1nc2ccccc2s1,nt,-0.9
O=C1CSC(c2cccs2)N1 (stereo unspecified),nt,-0.7
Cc1ccc(-n2c(SCc3nnc4n3CCCCC4)nnc2-c2ccccc2)cc1,nt,-1.0
CCN(CC)S(=O)(=O)c1ccc(NC(=O)C2CC(O)CN2S(=O)(=O)c2ccc(OC)cc2)cc1 (stereo unspecified),nt,2.6
Cc1cc(C)c2nc(C(F)(F)F)nc(N3CCN(Cc4ccccc4)CC3)c2c1,0.17,-0.3
CCOC(=O)Cn1c(=NC(=O)c2ccco2)sc2c(C)cc(C)cc21,-1,0.4
COC(=O)c1cc(=O)n2c(nc3ccccc32)s1,nt,0.8

# Next results
Molecule,LANA-nucl inh,BasE inh
CC1(c2csc(Nc3ccccc3Cl)n2)CCC(=O)O1 (stereo unspecified),-0.18,-1.4
CCn1nc(C)cc1C(=O)n1nc(C)c(Sc2nccn2C)c1C,-0.25,1.3
Cc1cnn(Cc2ccccc2)c1N,0.91,0.6
O=C(O)c1ccn(C(F)F)n1,-0.024,1.5
CC12CCC(=O)N1C(C(=O)OCN1C(=O)c3ccccc3C1=O)CS2 (stereo unspecified),nt,1.4
Cc1ccc2cc(CN(C(=O)c3cnccn3)C3CCCCC3)c(=O)[nH]c2c1,-0.72,-2.2
Clc1ccc(Oc2nc3ccccc3[nH]2)c(Cl)c1,nt,4.1
COC(=O)C1=NNC2C(=O)N(C3CCCCC3)C(=O)C12 (stereo unspecified),-0.33,1.5
COc1ccc(C(N)=O)c(O)c1,nt,1.6
C=CCSc1nnc(-c2c[nH]c3ccccc23)n1CC,-1.3,0.3
CC1=C(C)C(=O)C(NCc2ccccn2)=CC1=O,nt,1.6
O=c1c2ccccc2nc2sc3ccccc3n12,0.91,-2.2
CCOc1ccc(CN(C)C(=O)c2cc(S(=O)(=O)N3CCOCC3)ccc2C)cc1,nt,1.1
Nc1nc2ccccc2n1CCCOc1ccc(F)cc1,1.5,-3.0
CC(=O)NC(C)C(=O)Nc1cccc(C)c1C (stereo unspecified),nt,0.9
N#Cc1ccc(C2Oc3ccccc3C3CC(c4ccc5c(c4)OCCO5)=NN32)cc1 (stereo unspecified),nt,1.3
O=S(=O)(Nc1ccc2c(c1)OCCO2)c1csc(-c2cc(C(F)(F)F)on2)c1,nt,1.9
COc1cc(OC)cc(C(=O)OCC(=O)c2ccc(O)cc2O)c1,nt,-2.7
CCc1nnc2c3cnn(-c4ccccc4)c3nc(C)n12,nt,-0.6
COC(=O)c1c(C)nn(-c2ccc(OC(F)(F)F)cc2)c1-c1snnc1C,nt,2.5
N#C[C@@H]1O[C@H](COC(=O)c2ccccc2)[C@@H](OC(=O)c2ccccc2)[C@H]1OC(=O)c1ccccc1,nt,0.5
N/C(CN1CCSCC1)=N\OC(=O)c1ccccc1F,-0.25,0.6
O=P1(N2CCN(c3ccc(F)c(Cl)c3)CC2)COc2ccccc2OC1,-0.082,1.1
COc1ccc(-c2noc(-c3ccccc3C(=O)N3CCCCC3)n2)cc1OC,-0.29,-1.4
O=C1C2CC=CCC2C(=O)N1Cc1nnc(-c2ccc(Cl)cc2)o1 (stereo unspecified),nt,-0.7

# Single values from the entries so far.
# COc1ccc(-c2noc(-c3ccccc3C(=O)N3CCCCC3)n2)cc1OC in BasE inh is entered as -1.4
# CCOC(=O)Cn1c(=NC(=O)c2ccco2)sc2c(C)cc(C)cc21 in BasE inh is entered as 0.4
# C/C(=N/Nc1nc2ccccc2s1)C1=C(O)c2ccccc2C1=O in BasE inh is entered as 0.6
# Cc1cc(-c2cccs2)c2c(N)c(C(=O)c3ccccc3)sc2n1 in BasE inh is entered as 0.0
# Clc1ccc(Oc2nc3ccccc3[nH]2)c(Cl)c1 in BasE inh is entered as 4.1
# Cn1ncc2c(Nc3cccc(C(F)(F)F)c3)ncnc21 in BasE inh is entered as 3.0

# (cont.)
Molecule,LANA-nucl inh,BasE inh
C=CCNC(=O)C1=CC(c2ccc(F)cc2)=NS(=O)(=O)N1C,-0.34,1.3
O=c1[nH]ncc(N2CCCC2)c1Br,nt,0.5
COC(=O)c1c(NC(=O)c2cc3ccccc3o2)sc2c1CCCC2,1.4,-5.7
COc1ccc(C2CCCCCN2C(=O)Cn2nc(C(N)=O)c3ccccc3c2=O)cc1 (stereo unspecified),nt,-1.5
Cc1cccc2c3c4n(c12)CC1COC4(CCC3)O1 (stereo unspecified),-0.48,1.9
CCCn1c2ccc(F)cc2c2nc3n(c(=O)c21)CCS3,0.057,-0.1
COC(=O)c1nnn(-c2nonc2N)c1CN1C(=O)c2ccccc2C1=O,-0.37,1.1
O=C(c1ccc2c(c1)CCN2S(=O)(=O)c1ccccc1)N1CCOCC1,0.017,-3.9
N#CC(c1ccco1)N1CCN(C(C#N)c2ccco2)CC1 (stereo unspecified),nt,1.4
CN1C(=O)/C(=N\N2C(=O)CSC2=S)c2ccccc21,-0.47,0.9
CC(Sc1nnc(-c2ccncc2)n1N)C(=O)c1ccc(F)c(F)c1 (stereo unspecified),nt,0.9
COCCn1nnnc1C(c1ccc2ncccc2c1)N1CCc2ccccc21 (stereo unspecified),-0.33,-1.6
O=C(NCc1ccco1)c1ccc(-n2nncc2-c2ccccc2)cc1,nt,1.6
O=C(CSc1nnc(-c2ccc(Cl)cc2)n1Cc1ccccc1)NC(=O)NCc1ccco1,nt,2.4
CS(=O)(=NC(=O)Nc1ccccc1)c1ccccc1 (stereo unspecified),nt,-1.1
CCCc1cc(=O)[nH]c(SCC(=O)N(C)c2ccccc2)n1,nt,-0.5
COC(=O)N/N=C/c1cn(CCOc2ccc(OC)cc2)c2ccccc12,-0.23,-1.4
O=S(=O)(CCn1cccc1)CCn1cccc1,0.3,-1.3
O=C(Cn1nnc2ccccc21)OCC(=O)c1ccc(Cl)cc1,-0.92,1.5
Cn1cc(NC(=O)NCCN2CCCC2)c2ccccc2c1=O,-0.7,3.2
Cc1ccc(-c2cc(Cc3cccnc3)c(=O)[nH]n2)cc1,-0.052,-3.8
